UUG fidelity: yeast start codon fidelity modulation. S. cerevisiae UUG-firefly luciferase reporter, luminescence/redox ratio. activity score, % at 18.7 µM. 0.13% of 350,000 active. AID 602363;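 active means replicate mean at a twofold rise or more, about +100% in these data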;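 further: firefly luciferase made from a UUG start codon reports start codon fidelity; reporter light over untreated wells divided by growth signal over untreated wells; some hits fall short of that in this replicate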
CSC inhib: blocks cancer stem cells; cancer stem cell-like cells viability, luminescence; AID 2717; 1.1% of 300,000 active; inhibition, % at 7.5 µM;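 active means mean at 75% or more and at least half the replicates too; inconclusive means mean and replicates disagree; tested in HMLE shEcad cells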;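 further: 0% = median of negative and 100% = median of positive control wells; the first replicate is given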
Rce1 inh: yeast Ras-converting enzyme inhibition. Q03530. yeast membranes, quenched prenylated peptide cleavage fluorescence. calls only. 0.27% of 290,000 active;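 active means fall in fluorescence gain of 50% or more versus controls, with final raw signal at or below 3038400; inconclusive means same 50% fall but final raw signal above 3038400; inactive means fall in fluorescence gain under 50%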;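 further: plate controls were neutral control wells for no effect and wells lacking membranes for full effect; tested at 10 µM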
Target sequence (Q03530 whole entry, looked up): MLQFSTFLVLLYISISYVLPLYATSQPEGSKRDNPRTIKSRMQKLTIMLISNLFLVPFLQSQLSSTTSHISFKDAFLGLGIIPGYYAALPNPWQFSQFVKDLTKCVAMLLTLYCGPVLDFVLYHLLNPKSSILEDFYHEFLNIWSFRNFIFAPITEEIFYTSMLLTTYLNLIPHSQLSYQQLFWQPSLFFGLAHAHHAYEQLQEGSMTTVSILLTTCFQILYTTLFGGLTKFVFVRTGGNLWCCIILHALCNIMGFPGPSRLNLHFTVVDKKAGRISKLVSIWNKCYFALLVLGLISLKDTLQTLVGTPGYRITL
PABP FP inh: PABP-poly(A) binding inhibition; P11940; PABP-poly(A) RNA binding, fluorescence polarization; inhibition, % at 35 µM; 1% of 290,000 active; AID 2014;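 active means 50% or more with normal probe brightness, or confirmed in later tests; inconclusive means above 50% with abnormal brightness, or retests that disagree; inactive means below 50% or failed in later tests; about a fifth of its hits are not listed in these tables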;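 further: calls also rest on retests at 20 µM and on dose response follow-up; controls were probe without protein and protein plus probe with vehicle; some compounds called inactive have numbers as strong as hits; many hits fall short of the cut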
eIF4H FP inh: inhibitors of RNA binding by human eIF4H; Q15056; eIF4H fluorescence polarization binding assay; inhibition, % at 35 µM; 0.94% of 290,000 active;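 active means 50% or more with normal probe brightness, or confirmed in later tests; inconclusive means above 50% with abnormal brightness, or retests that disagree; inactive means below 50% or failed in later tests; about a fifth of its hits are not listed in these tables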;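 further: calls also rest on retests at 20 µM and on dose response follow-up; 0% = protein and probe with vehicle and 100% = probe without protein; strong numbers were not always called active; many hits fall short of the cut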
Env fusion inh: inhibitors of HIV Env-mediated cell fusion; AID 651610; HeLa-JRFL Env/CEM21 cell fusion, luciferase; inhibition, % at 12.3 µM; 1.1% of 360,000 active;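 active means mean replicate inhibition score of at least 50 and every replicate individually at or above 50; inconclusive means only one of the two criteria met; inactive means mean below 50 and not all replicates reaching 50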;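 further: 0% = plate neutral controls and 100% = maraviroc near 300 nM; one replicate is shown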
MT1-MMP act inh: blocks activation of human MT1-MMP; GFP/RFP ratio change, % at 20 µM; AID 651647; 0.061% of 360,000 active; HT1080 RFP-PRO-GFP cells, GFP/RFP ratio fluorescence, overnight; percent of plate control window, DMSO zero;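 active means GFP/RFP ratio change of at least 30% with cell ATP level not reduced by more than half and red fluorescence within 50% of control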; further: strong numbers were not always called active
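Material: RFP-PRO-GFP reporter HT1080 cells. Dosing: single-point 20 µM compound, 1% DMSO. Controls: DMSO and RFP-L50D-GFP cell wells. Timing: cells overnight before dosing, compound overnight, 37 °C, 5% CO2. Measure: GFP/RFP fluorescence ratio.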
eIF4H FP inh retest: recorded beside eIF4H FP inh, whose call it bears; inhibition, %; compound at 20 µM; confirmation average;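 mean of two retest wells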
PABP FP inh retest: further read-out of PABP FP inh, marked with its call; inhibition, %; compound at 20 µM; confirmation repeats;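 mean of two retest wells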
MT1-MMP act inh RFP: also measured in MT1-MMP act inh; calls as there; RFP signal change, %; measured here: RFP expression control read;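 0 = vehicle wells; hits needed this value within 50% of zero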
* marks the source's active call; other numbers are inactive results; i = inactive; ? = inconclusive; · = not tested or not shown. Not all compounds are listed; count on the stated rates, not on these rows.

SMILES	UUG fidelity	CSC inhib	Rce1 inh	PABP FP inh	eIF4H FP inh	Env fusion inh	MT1-MMP act inh	MT1-MMP act inh RFP	others
CCCCn1c(N)c(N(CC(C)C)C(=O)c2cnc(C)cn2)c(=O)[nH]c1=O	-20	-3	i	·	·	-79	-6	3
CCC(Sc1nc2ccccc2c2nc3ccccc3n12)C(=O)NCc1ccco1 (stereo not given)	·	1	i	-9	1	·	·	·
O=C(c1ccc(Cn2c(=O)[nH]c3ccsc3c2=O)cc1)N1CCN(c2ccccc2)CC1	-2	1	i	5	9	7	-8	-7
C=CCn1c(SCC(=O)Nc2ccc3c(c2)CCC3)nc2ccccc2c1=O	·	22	i	-7	-9	6	-2	-3
O=[N+]([O-])c1cccc2c3c([nH]c12)CCCC3	-14	-18	i	-3	3	-9	-2	-4
C=CCN(C(=O)CNC(=O)c1ccco1)C(C(=O)NC1CCCCC1)c1ccc(OC)cc1OC (stereo not given)	-14	-5	i	37	-8	7	4	5
COC(=O)CSc1nc2ccccc2n1CC(=O)N(C(C)C)C(C)C	-18	-16	i	2	0	-105	-5	1
CCOC(CCNC(=O)c1cn(CC(C)C)c(=O)c2c1c1ccccc1n2C)OCC	-6	9	i	5	-1	4	4	3
CCNC(=O)CC1C(=O)N(c2ccc(C)cc2)C(=O)N1CCc1sccc1C (stereo not given)	·	3	i	6	2	3	-1	2
CCCCNC(=O)C1(C)CCCCN1C(=O)c1ccc2c(c1)C(C)(C)CCC2(C)C (stereo not given)	4	·	·	·	·	46	-13	-19
O=[N+]([O-])c1ccc(NC(=S)N2CCN(c3ccccc3)CC2)cc1	-28	12	i	14	1	28	-2	-4
CCc1cccc(C)c1NC(=S)N(CCOC)C(C)c1ccco1 (stereo not given)	-11	9	i	0	-3	9	0	3
Cc1ccc(NC(=S)Nc2ccc3cn[nH]c3c2)cc1C	·	6	i	-1	-14	-2	-1	3
CCOC(=O)C1(C)CCCN(C(=O)c2cccc(C(F)(F)F)c2)C1 (stereo not given)	-5	·	·	·	·	-8	1	0
O=C(CN(CCc1ccccc1)S(=O)(=O)c1ccc(Br)cc1)N/N=C/c1ccc2c(c1)OCO2	·	-7	i	-10	-12	·	0	-4
CCOc1ccc(C2c3cc(OC)c(OC)cc3CC(=O)N2c2ccc(OC)cc2)cc1 (stereo not given)	-14	27	i	-4	-4	-12	-5	-9
CCCCn1c(N)c(N(CCOC)C(=O)c2ccc(S(=O)(=O)N3CCCCC3)cc2)c(=O)[nH]c1=O	-5	-4	i	·	·	-6	2	2
O=C(Nc1c2c(nn1-c1ccccc1)CS(=O)C2)c1ccc(Br)o1 (stereo not given)	3	-13	i	14	90	-2	3	5	eIF4H FP inh retest=6;PABP FP inh retest=4
COc1ccc(C(=O)c2c(-c3ccsc3)oc3ccc(-c4ccc(OC)cc4)cc23)cc1	·	-5	i	·	·	23	·	·
COc1ccc(C2(C)NC(=O)N(CC(=O)NC(C)c3ccc(CC(C)C)cc3)C2=O)cc1 (stereo not given)	18	7	i	-1	4	27	-1	-7
Cc1nc(NC(=O)CCc2ccccc2)sc1C	-17	-3	·	-8	-16	-19	3	0
CCCCOc1ccc(C(=O)Nc2ccc(C)cc2[N+](=O)[O-])cc1	·	7	i	-8	-2	·	6	-4
COc1ccc(C(=O)N2CCn3c2nc2ccccc23)cc1	-15	1	i	-5	-11	-22	-2	-4
O=C(Cn1ncc2c([nH]c3ccccc32)c1=O)NCC1CCN(Cc2ccccc2F)CC1	-6	0	i	-19	-5	0	1	0
CC(C)c1nc2cc3ccccc3cc2[nH]1	-12	4	i	-4	8	·	-1	2

Remaining list, next part.
SMILES	UUG fidelity	CSC inhib	Rce1 inh	PABP FP inh	eIF4H FP inh	Env fusion inh	MT1-MMP act inh	MT1-MMP act inh RFP	others
CC(CC(=O)Nc1ccccc1)n1ccnc1 (stereo not given)	·	-11	i	-3	-1	5	-5	-5
Cc1ccccc1Oc1ncnc(N)c1[N+](=O)[O-]	-17	·	i	4	-2	-15	-3	-5
CCCN(C(=O)c1cc2c(s1)CCC2)c1c(N)n(Cc2ccccc2)c(=O)[nH]c1=O	·	-6	i	55*	96*	19	1	1
O=C1CN(S(=O)(=O)c2ccc(Cl)cc2)CC(=O)N1CCc1ccccc1	-18	-13	i	-4	8	11	5	18
CC1CCCCN1CCCNC(=O)c1ccc(Br)cc1 (stereo not given)	-11	·	i	4	10	-6	-1	3
O=C(CN1CCN(c2ccc(F)cc2)CC1)NC(=O)NCc1ccco1	·	-6	i	-1	56	-11	3	6	eIF4H FP inh retest=-1;PABP FP inh retest=-1
CCOc1cc(CNCCc2ccc(S(N)(=O)=O)cc2)ccc1OCc1ccc(Cl)cc1	-5	-8	i	-24	-5	·	-10	-17
COc1cc(S(=O)(=O)NCc2ccc3c(c2)OCO3)ccc1F	·	-6	i	6	-5	-5	-1	1
CC(=O)c1ccc(Oc2cnccn2)cc1	·	-35	i	11	-1	-2	2	3
O=C(O)[C@H]1CCCC[C@H]1C(=O)NCCc1ccccc1	-24	-11	i	-1	-7	-34	-1	1
Cn1c(SCc2cc([N+](=O)[O-])cc3c2OCOC3)nnc1-c1ccccn1	·	-2	i	26	-5	-63	2	2
COc1ccc(N(C(=O)COc2ccccc2)C2C=CS(=O)(=O)C2)c(OC)c1 (stereo not given)	-12	-10	i	4	1	7	2	11
CCOCCCNC(=O)CCCC1=NS(=O)(=O)c2ccccc2N1	2	-5	i	0	-1	16	3	6
CCCOc1ccc(/C=C2/C(=O)ON=C2C)cc1Cl	-11	11	i	24	6	-8	-2	0
C(=C\c1ccccn1)/c1ccccn1	-16	6	i	6	12	-10	0	3
C=C(C)C(=O)Oc1ccc(N=Nc2ccc(C)cc2)ccc1=O	-28	·	·	·	·	-9	22	-4
N#CCCN(C1CCCCC1)S(=O)(=O)CCOc1ccccc1	3	8	i	3	12	·	1	0
COc1ccc(NC(=O)C2CCCN(S(=O)(=O)c3cccc4cccnc34)C2)cc1OC (stereo not given)	15	-21	i	-4	4	3	1	-2
CC(=O)Nc1ccc(C(=O)N/N=C/c2cc(Br)cc(Br)c2O)cc1	·	-5	i	13	0	6	-11	-7
O=[N+]([O-])c1nccn1CCCCCCN1CCOCC1	-20	·	·	·	·	-6	1	5
c1ccc(CNc2ncnc3scc(-c4cccs4)c23)nc1	7	-13	i	1	-14	25	1	-30
O=C(COc1ccc(S(=O)(=O)N2CCOCC2)cc1Cl)N1CCOCC1	-16	-13	i	-3	4	-11	-1	1
COc1cc(CCNC(=O)c2cnn3ccccc23)cc(OC)c1OC	-21	0	i	2	-7	-51	-4	-3
O=S1(=O)CCN2C(=N1)SC1=C2CCN(Cc2ccccc2)C1	-7	-10	i	-5	1	·	1	2
COc1ccc(NC(=O)CO/N=C2\CCCc3nonc32)cc1	·	-5	i	-2	-3	-9	3	3

Next section.
SMILES	UUG fidelity	CSC inhib	Rce1 inh	PABP FP inh	eIF4H FP inh	Env fusion inh	MT1-MMP act inh	MT1-MMP act inh RFP	others
CSc1ccc(CN2CCN(Cc3ccc([N+](=O)[O-])cc3)CC2)cc1	1	25	i	-8	-11	31	-6	-31
COc1cc2c(cc1OC)CN(Cc1ccc(C)cc1)CC2	-8	-7	i	-4	-4	19	-4	-3
CC12CCC(C(=O)N3CCN(c4ncccn4)CC3)(c3nc4ccccc4nc31)C2(C)C (stereo not given)	0	0	i	0	-4	·	4	3
CC(=O)c1ccc(N2Cc3ccccc3C2)cc1	-26	6	·	-2	-2	29	1	2
C=CCSC1=N/C(=C/c2ccsc2)C(=O)N1c1ccccc1	·	23	i	-12	-8	·	2	11
O=C(C[C@H]1C/C=C\CC[C@H](Cc2ccc(F)cc2)C(=O)OC[C@@H](Cc2c[nH]c3ccccc23)NC1=O)NCCO	6	-19	·	·	·	-18	0	-1
O=C(CNc1cccc2ccccc12)N/N=C/c1ccccn1	-30	10	i	5	18	5	4	9
COc1ccc(C(=O)N2CCc3cc(OC)c(OC)cc3C2c2cccc([N+](=O)[O-])c2)cc1 (stereo not given)	·	·	i	9	0	·	·	·
Nc1c(C(=O)Nc2ccc3c(c2)OCCO3)nnn1Cc1ccccc1Cl	-15	6	i	·	·	-75	4	-2
Cc1cccc(C(=O)OCC(=O)N2CC(=O)Nc3ccccc32)c1C	·	1	·	·	·	-2	-4	3
O=C(C[n+]1ccccc1)Nc1ccccc1C(=O)O	·	-4	·	-8	-1	-17	-1	9
COc1ccccc1/C=C/C=C1\Oc2c(ccc(O)c2CN2CCN(CCO)CC2)C1=O	-16	8	i	10	?	16	-77	3
COc1ccc(NC(=O)CSCC(=O)N(C)Cc2ccc3c(c2)OCCO3)cc1	-11	·	·	·	·	-12	1	2
CCC12C(=O)C(CC)(C(c3ccccc3)=C1c1ccccc1)[C@@H]1C(=O)N(c3ccccc3)C(=O)C12 (stereo not given in full)	-13	20	i	-16	-1	·	-5	-8
Cc1cc(OCC(=O)N(C(C)C)C(C)C)cc(C)c1Br	·	12	i	20	36	·	-5	-1
Cc1ccc(C(NC(=O)N2CCCCC2)=C(Cl)Cl)cc1F	·	24	i	-1	1	1	-2	-4
CCCC/C(C)=N/NC(=O)Nc1ccccc1	-10	-8	i	-4	-4	·	4	8
C=CCc1cccc2cc(NC(C)=O)c(=O)oc12	-12	-19	i	0	0	-25	-7	-2
CCCNC(=O)C1(C)CCN(C(=O)c2sccc2C)C1 (stereo not given)	-9	·	·	·	·	4	2	5
NC(=O)CSc1nnc(-c2ccccc2F)n1C1CC1	-18	-9	i	-9	10	-33	1	5
CC(=O)Nc1ccc(S(=O)(=O)NCc2ccc(C(=O)NCCN3CCCCCC3)cc2)cc1	-15	·	i	-8	-6	·	1	3
Cc1ccc(C2SCC(=O)N2c2ccccc2)cc1 (stereo not given)	6	-35	i	-1	-4	-11	2	0
CCN(CC)S(=O)(=O)c1ccc(F)c(C(=O)NCCCN2CCOCC2)c1	1	5	i	-5	3	-27	4	4
CN(C)c1ccc(C=Nc2ccccc2)cc1	-16	·	i	1	5	-110	-4	-1
CC(CC(=O)N1CCN(c2ccccc2F)CC1)c1ccccc1 (stereo not given)	·	-8	i	11	-4	-1	1	1

Carrying on:
SMILES	UUG fidelity	CSC inhib	Rce1 inh	PABP FP inh	eIF4H FP inh	Env fusion inh	MT1-MMP act inh	MT1-MMP act inh RFP	others
COc1ccccc1CCNC(=O)C(C)n1nc(C)c2c(C)n(-c3ccccc3)nc2c1=O (stereo not given)	16	-6	i	0	4	7	-1	-2
CC1=C2C3OC(=O)C(C)[C@@H]3CC[C@](C)(O)C2C2C3C4C5(C12)[C@H]1OC(=O)[C@@H](C)C1CC[C@]4(C)O[C@]5(C)[C@@H]3O (stereo not given in full)	·	-17	i	5	-8	-17	2	7
COc1ccc(CNC(=O)Nc2ccccc2)cc1	-20	-5	i	3	-2	-44	4	2
O=C(c1ccccc1)c1coc2ccc(O)c(Cl)c12	-6	4	i	-5	3	·	-2	-2
O=C1NCCNC(=O)c2ccccc2OCCOc2ccccc21	·	-11	i	44	-3	6	3	-1
Brc1ccccc1OCCCn1cnc2ccccc21	-28	8	i	1	-6	-424	17	-3
CCOc1cccc(OCCn2cnc3ccccc3c2=O)c1	-11	-13	i	-1	7	·	-2	-8
